Bioassay records: PubChem, Broad Institute
BJeLR viab HTS: lowers viability of BJeLR cells. BJeLR fibroblasts viability, CellTiterGlo ATP luminescence, 48 h; HRASV12, hTERT and SV40 LT/ST transformed. viability loss activity score, % (test concentration not listed). hit rate 0.64% among 30,000; in the data active means viability loss activity score above about 50%; about a fifth of its hits are not listed in these tables;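 further: higher score means fewer live cells and less ATP luminescence; stock transfer was 50 or 100 nL into about 30 µL; 0% = vehicle wells and 100% = a reference killing control; one replicate is shown; the record names a cut of 85%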
A1 inh: A1 inhibition | AID 2241 | caspase activation, % (concentration not given with the values) | hit rate 0.51% among 21,000 | MEF A1-2A-BIM cells, caspase-Glo luminescence, 3 h; percent of clofoctol signal, DMSO as zero;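 active means most replicate scores above 10, or exactly half above 10 with mean activity above 10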;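 further: effector caspase 3 and 7 activity cleaving a DEVD luciferin substrate; 50 nL library stock added to about 30 µL; numbers are from one replicate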
Numbers without * were called inactive; . = no result given. A portion of the library, so the mix of outcomes need not match the whole.

Results follow in this order: A1 inh | BJeLR viab HTS
C[C@H](CO)N1C[C@H](C)[C@H](CN(C)C)Oc2ccc(NC(=O)Nc3cccc4ccccc34)cc2C1=O
    -0.1 | -3.8
CN1C2CCC1/C(=C\c1ccccc1)C(=O)/C2=C\c1ccccc1
    . | 7.2
c1ccc(-c2cnc3nonc3n2)cc1
    2.8 | 8.5
COc1ccc(C2CC(c3ccc(C)cc3)=NN2S(=O)(=O)c2ccc(C)cc2)cc1 (centres undefined)
    -0.5 | -1.2
COc1cc(OC)c2c(=O)c(O)c(-c3ccc(OC)c(OC)c3)oc2c1
    0.2 | 1.6
COc1ccc(NC(=O)Nc2ccc3c(c2)C(=O)N([C@H](C)CO)C[C@H](C)[C@H](CN(C)C(=O)Nc2ccc(OC)cc2)O3)cc1
    -1.1 | -0.3
COc1ccc(CN(C)C[C@H]2Oc3c(NS(=O)(=O)c4cccs4)cccc3C(=O)N([C@H](C)CO)C[C@@H]2C)cc1
    . | 7.3
CC(=O)NC(=O)C1C=C2C=CC=CC2OC1=Nc1ccc(C(F)(F)F)cc1 (centres undefined)
    0.3 | -0.4
CCCNC(=O)c1cnn2c(C)c(Cc3ccccc3)c(C)nc12
    -0.5 | -2.4
COc1cccc(Cc2nnc(-c3ccc(-c4cccs4)s3)o2)c1
    -2.1 | -0.2
C[C@@H]1CN([C@@H](C)CO)C(=O)c2cc(NS(=O)(=O)c3cn(C)cn3)ccc2O[C@@H]1CN(C)Cc1ccc(C(=O)O)cc1
    0.4 | -1.0
C[C@@H]1CN([C@@H](C)CO)C(=O)c2cc(NC(=O)Cn3cnnn3)ccc2O[C@@H]1CN(C)CC1CC1
    -0.7 | 0.9
CCCCCC[C@@H]([C@@H](C)O)n1cnc2c(N)ncnc21
    -0.6 | -15.0
COc1ccc(S(=O)(=O)N(C)C[C@@H]2Oc3c(NC(=O)C4CCCCC4)cccc3C(=O)N([C@H](C)CO)C[C@H]2C)cc1
    . | 1.1
C[C@@H]1CN([C@@H](C)CO)C(=O)c2cc(NC(=O)c3ccncc3)ccc2O[C@H]1CN(C)Cc1ccc(Oc2ccccc2)cc1
    -0.2 | -0.1

Brought forward from above: two compounds; new compounds follow.
Results follow in this order: A1 inh | BJeLR viab HTS
COc1ccc(S(=O)(=O)N(C)C[C@@H]2Oc3c(NC(=O)C4CCCCC4)cccc3C(=O)N([C@H](C)CO)C[C@H]2C)cc1
    . | 1.1
C[C@@H]1CN([C@@H](C)CO)C(=O)c2cc(NC(=O)c3ccncc3)ccc2O[C@H]1CN(C)Cc1ccc(Oc2ccccc2)cc1
    -0.2 | -0.1
CN1CCc2c(c3ccccc3n2Cc2ccccc2)C1
    1.1 | 0.0
COC1=CC(=O)CC(C)C12Oc1cc(OC)cc(O)c1C2=O (centres undefined)
    0.2 | -0.2
O=C(NCCc1ccccc1)c1cc2c(ccc3ccccc32)o1
    -1.3 | -8.2
c1ccc(COc2c3c(nc4ccccc24)CCCC3)cc1
    -0.4 | -0.9
CC(C)(C)C(=O)Nc1nc(NC(=O)C(C)(C)C)nc(-c2ccccc2Cl)n1
    0.5 | 2.8
COC(=O)c1ccccc1NC(=O)c1ccc(F)cc1
    -0.4 | 1.1
CCc1ccc2[nH]c3nc(C)cc(C)c3c(=O)c2c1
    . | 1.7
CC1=Nc2cc(C(=O)NCCc3ccccc3)ccc2Sc2ccccc21
    . | 1.8
C[C@H]1CN([C@@H](C)CO)C(=O)c2cccc(NS(=O)(=O)c3ccc(F)cc3)c2O[C@@H]1CN(C)S(=O)(=O)c1ccc(Cl)cc1
    . | -1.2
C=CCn1c(=O)c2ccccc2n2nnc(C(=O)OCC)c12
    -1.0 | 0.7
CCOc1ccc(NC(=O)NCc2cccn2C)cc1
    -6.7 | 4.8
C[C@H]1CN([C@@H](C)CO)C(=O)c2cccc(N(C)C)c2O[C@@H]1CN(C)Cc1ccc2c(c1)OCO2
    . | 4.7
COc1ccc(S(=O)(=O)Nc2cccc3c2O[C@H](CN(C)C(=O)Nc2ccc4c(c2)OCO4)[C@H](C)CN([C@H](C)CO)C3=O)cc1
    . | -4.2
O=C(O)C1OC(c2cccc(Cl)c2)=NC12CC2 (centres undefined)
    . | -1.7
Cc1ccc(CSc2nc3ccccc3c3nc(CCn4nc(C)cc4C)nn23)cc1
    0.4 | -3.5
O=C(NCc1ccccn1)C1CCC(CNS(=O)(=O)c2ccccc2)CC1 (centres undefined)
    0.5 | 3.7
Cc1cccc(CCNC(=O)CSc2c3c(nc4ccc(Cl)cc24)CCCC3)c1
    . | -0.7
C[C@H](CO)N1C[C@H](C)[C@@H](CN(C)Cc2ccc3c(c2)OCO3)Oc2ccc(NC(=O)Nc3ccc(F)cc3)cc2C1=O
    0.0 | -4.2
Cc1noc(C)c1S(=O)(=O)Nc1ccc2c(c1)C(=O)N([C@@H](C)CO)C[C@H](C)[C@H](CN(C)S(C)(=O)=O)O2
    -1.0 | -0.5
O=C(c1ccccc1SCc1ccccc1)N1CCCc2ccccc21
    0.1 | 0.6
C[C@@H]1CN([C@@H](C)CO)C(=O)c2cc(NC(=O)Cn3cnnn3)ccc2O[C@H]1CN(C)Cc1ccc(C(=O)O)cc1
    0.5 | 2.1
CCCn1c2ccc(C)cc2c2nnc(SCCN3CCOCC3)nc21
    -0.6 | 1.7
N#Cc1ccc(NC(=O)Cc2ccccc2)cc1
    . | 3.5
O=C(O)c1cc2cc(Cc3cccnc3)ccc2o1
    0.0 | -1.7
Brc1c(Br)c(Br)c2n[nH]nc2c1Br
    -0.1 | 0.5
C[C@H]1CN([C@@H](C)CO)C(=O)c2cc(NS(=O)(=O)c3cn(C)cn3)ccc2O[C@H]1CN(C)C(=O)Nc1cccc2ccccc12
    -0.7 | -2.4
O=c1c2ccccc2n(Cc2ccccc2)c(=O)n1-c1cccc(Cl)c1
    -0.8 | -2.6
Cn1c(=O)c(-c2nc(-c3ccccc3)cs2)cn(-c2ccccc2)c1=O
    1.4 | 1.3
N#C/C(=C/c1cn(-c2ccccc2)nc1-c1cc2ccccc2o1)S(=O)(=O)c1ccccc1
    . | -5.8
COc1ccc(NC(=O)N(C)C[C@@H]2Oc3ccc(NC(=O)Cc4cn(C)c5ccccc45)cc3C(=O)N([C@@H](C)CO)C[C@@H]2C)cc1
    0.3 | -3.8
C[C@H]1CN([C@@H](C)CO)C(=O)c2cc(NS(C)(=O)=O)ccc2O[C@@H]1CN(C)S(=O)(=O)c1ccc(Cl)cc1
    -0.3 | 2.1
C[C@H](CO)N1C[C@H](C)[C@H](CN(C)CC2CCCCC2)Oc2c(NC(=O)C3CCOCC3)cccc2C1=O
    . | 2.7
CCOc1ccc2nc(SCCC(=O)Nc3ccccc3)sc2c1
    -0.1 | 2.0
O=c1oc(Cl)c(Cl)c2ccccc12
    5.2 | 55.4*
CCN(CC)C(=S)SCc1cn2cccnc2n1
    1.3 | 2.9
CCn1c(=O)c2c(n3c(SCC(N)=O)nnc13)-c1ccccc1CC21CCCCC1
    1.2 | -1.3
C=CCn1c(-c2nonc2NC(=O)CC)nc2ccccc21
    -0.5 | 1.7
Clc1cccc(Cc2cn3cc(-c4ccccc4)nc3s2)c1
    -5.8 | -7.2
Cc1c(C#N)c2nc3ccccc3n2c(=O)/c1=C/Nn1cnnc1
    0.1 | -2.4
C[C@H](CO)N1C[C@H](C)[C@@H](CN(C)C(=O)Nc2ccc(F)cc2)Oc2ccc(NS(=O)(=O)c3cn(C)cn3)cc2C1=O
    -0.7 | 2.0
CC(C)c1ccc(S(=O)(=O)CC#N)cc1
    -0.4 | -0.9
COc1ccc(CN2CCC(N(C)Cc3ccccc3)CC2)cc1
    . | 0.9
CNCCCC12CCC(c3ccccc31)c1ccccc12
    -0.2 | 3.9
C[C@H]1CN([C@@H](C)CO)C(=O)c2cc(N(C)C)ccc2O[C@@H]1CN(C)CC1CCCCC1
    -0.2 | -3.9
CC1C=CCC2C(=O)N(c3ccc4c(c3)CCC4)C(=O)C12 (centres undefined)
    0.3 | 1.4
Cc1ccc2c(c1)-c1c(ssc1=S)C(C)(C)N2C(=O)C(C)C
    -0.6 | -5.0
CC(C)=CCc1c(O[C@@H]2O[C@H](CO)[C@@H](O)[C@H](O)[C@H]2O)cc(O)c2c1O[C@H](c1ccc(O)cc1)CC2=O
    1.6 | -2.6
Cc1ccc(S(=O)(=O)N(C)C[C@H]2Oc3ccc(N(C)C)cc3C(=O)N([C@@H](C)CO)C[C@H]2C)cc1
    -0.4 | 0.9
CCOC(=O)c1nn(-c2ccc(OC)cc2)c(C(=O)OCC)c1NC(=O)C1CCCCC1
    -1.5 | -1.7
C/C(=C/CO)CC[C@@H]1[C@@](C)(O)CCC2C(C)(C)CCC[C@]21C (some centres undefined)
    0.3 | 29.0
C[C@@H]1CN([C@H](C)CO)C(=O)c2cccc(NC(=O)NC3CCCCC3)c2O[C@H]1CN(C)S(=O)(=O)c1cn(C)cn1
    . | -3.3
Cc1ccc(CSc2nnc(-n3c(=O)c(C#N)cc4c(=O)n5ccccc5nc43)s2)cc1
    0.4 | -5.6
Cc1ccc(S(=O)(=O)Nc2cncc(C(=O)NC3CCCC3)c2)cc1
    0.2 | -3.2
COc1cc(SC)ccc1-c1nc2ccncc2[nH]1
    -0.4 | 0.7
Cc1ccc(OC(=O)c2c(-c3ccccc3)nnc3ccccc23)cc1
    -0.9 | 25.2
Cc1noc(C)c1NC(=O)Nc1ccc2c(c1)C(=O)N([C@@H](C)CO)C[C@H](C)[C@H](CN(C)Cc1ccc3c(c1)OCO3)O2
    1.4 | 0.4
Cc1ccc(S(=O)(=O)Nc2cccc3c2O[C@H](CN(C)S(=O)(=O)c2cn(C)cn2)[C@@H](C)CN([C@H](C)CO)C3=O)cc1
    . | -0.4
CCN1C(=O)c2ccccc2Sc2ccc(C(=O)NCc3ccccc3)cc21
    0.0 | -0.6
C[C@@H]1CN([C@H](C)CO)C(=O)c2cc(NC(=O)Nc3ccc(F)cc3)ccc2O[C@H]1CN(C)S(=O)(=O)c1ccc(Cl)cc1
    0.8 | 3.8
COc1cc(CO)c(CC(=O)NN)cc1OC
    0.7 | -0.2

(listing goes on)
Results follow in this order: A1 inh | BJeLR viab HTS
C[C@@H]1CN([C@@H](C)CO)C(=O)c2cc(NC(=O)Cc3ccccc3)ccc2O[C@H]1CN(C)S(=O)(=O)c1ccccc1
    0.9 | -1.1
COc1ccc(S(=O)(=O)N(C)C[C@H]2Oc3c(NC(=O)Nc4ccc5c(c4)OCO5)cccc3C(=O)N([C@H](C)CO)C[C@H]2C)cc1
    . | -2.4
COc1ccc(S(=O)(=O)Nc2ccc3c(c2)C(=O)N([C@H](C)CO)C[C@H](C)[C@@H](CN(C)S(=O)(=O)c2ccccc2)O3)cc1
    0.6 | -0.9
C=C1CC[C@H](O)CC1=C/C=C1\CCC[C@]2(C)[C@@H]([C@H](C)CC[C@@H](O)C(C)(C)O)CC[C@@H]12
    -0.7 | 1.3
CC1CCCN(CCCNC(=O)c2coc3nc4ccccc4nc23)C1 (centres undefined)
    -6.0 | 5.2
O=c1[nH]c(CN2CCCCC2)nc2c1oc1ccccc12
    1.6 | -3.5
COC1OC(O)C(O)C12CC[C@@]1(O2)[C@H](C)C[C@H]2OC(=O)[C@@]3(C)CCC[C@]1(C)C23 (some centres undefined)
    -0.7 | -5.3
CC(C(=O)O)N1C(=O)/C(=C2/C(=O)N(C)c3ccccc32)SC1=S (centres undefined)
    . | 0.4
CC(C(=O)N1CCN(c2ccc(F)cc2)CC1)N1C(=O)c2ccccc2C1=O (centres undefined)
    . | 0.7
Cc1ccc(C(=O)COC(=O)C2C3C=CC(C3)C2C(=O)OCC(=O)c2ccc(C)c(C)c2)cc1C (centres undefined)
    . | -1.3
CC(C)NC(=O)Nc1ccc2c(c1)C(=O)N([C@@H](C)CO)C[C@H](C)[C@@H](CN(C)S(C)(=O)=O)O2
    0.5 | -1.3
O=C(Nc1ccccc1C(=O)O)c1ccccc1Cl
    -1.3 | -0.6
O=C(CC1c2ccccc2Oc2ccccc21)NCCOc1ccccc1Cl
    0.4 | -6.8
Cc1ccc2nc(C)n3c4ccccc4c(NC=O)c3c2c1
    0.3 | 0.2
Cc1ccc(S(=O)(=O)Nc2cccc3c2O[C@H](CN(C)S(=O)(=O)c2ccccc2)[C@@H](C)CN([C@H](C)CO)C3=O)cc1
    . | 4.9

Quoted from the listing.
C[C@H]1CN([C@@H](C)CO)C(=O)c2cc(NS(=O)(=O)c3cn(C)cn3)ccc2O[C@H]1CN(C)C(=O)Nc1cccc2ccccc12 in A1 inh: -0.7
Cc1cccc(CCNC(=O)CSc2c3c(nc4ccc(Cl)cc24)CCCC3)c1 in BJeLR viab HTS: -0.7

(cont.)
Results follow in this order: A1 inh | BJeLR viab HTS
CC1=C(C(=O)NCc2ccco2)C2(CCCCC2)OC1=O
    . | 3.8
CNCCCC1c2ccccc2C=Cc2ccccc21
    -0.2 | 0.6
Cc1ccc(C(=O)CC(Sc2ccccc2N)c2ccsc2)cc1 (centres undefined)
    -1.9 | -5.9
CCC(C)C1NC(=O)C(CCC(=O)O)N(C)C(=O)C(C(C)C)N(C)C(=O)CNC(=O)C2CCCN2C(=O)C(Cc2ccccc2)NC(=O)C(C(C)CC)OC(=O)C(CCC(=O)O)N(C)C(=O)C(C(C)C)NC(=O)C2CCCCN2C1=O (centres undefined)
    -1.2 | -7.8
CCCNC(=O)Cn1c(=O)c2cccn2c2ccccc21
    0.7 | -3.4
CC(C)(O)[C@@H]1Cc2cc3ccc(=O)oc3cc2O1
    0.6 | -5.9
C[C@@H]1CN([C@H](C)CO)C(=O)c2cccc(NC(=O)C3CCCCC3)c2O[C@H]1CN(C)Cc1ccc2c(c1)OCO2
    . | -6.6
